miR-21 reporter: miR-21 reporter, rising signal. HeLa miR-21 FLuc reporter, luciferase, 48 h. Potency, µM (highest dose often 38.3 µM), for the others: at the highest dose reporter change, positive = more light. 340,000 tested, under 10 active. AID 2288; active = well fitted rising curve with a large enough effect; inconclusive = small, poorly fitted or top-dose-only effect; inactive = no such curve, though single readings can be large or run the other way;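 further: % of control where 0% means no effect; miR-21 action dims this reporter so a rising signal means less miR-21 action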
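HeLa miR-21-FLuc reporter line, endogenous miR-21; 2000 cells/well in DMEM/10% FBS; compound titration up to ~40uM final, 48 h, 37 degree Celsius; luciferase detection reagent, 15 min lysis, CCD luminescence.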
Rango-impB inh: Rango-importin beta binding inhibition; Rango CFP/YFP FRET sensor + importin beta, 45 min; Potency, µM (series often up to 92.2 µM), inactives show at the top dose inhibition of complex formation; hit rate 0.031% among 340,000; active = rising FRET ratio curve, often small or poorly fitted; inconclusive = mostly compound fluorescence or quenching in the first reads; inactive = flat curves in all reads;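 further: potency means the concentration at half of the fitted maximal effect; 0% = DMSO wells and 100% = buffer wells lacking importin beta; nearly all actives have a fitted effect of over 15% in size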
Target sequence (Q14974 whole entry, looked up): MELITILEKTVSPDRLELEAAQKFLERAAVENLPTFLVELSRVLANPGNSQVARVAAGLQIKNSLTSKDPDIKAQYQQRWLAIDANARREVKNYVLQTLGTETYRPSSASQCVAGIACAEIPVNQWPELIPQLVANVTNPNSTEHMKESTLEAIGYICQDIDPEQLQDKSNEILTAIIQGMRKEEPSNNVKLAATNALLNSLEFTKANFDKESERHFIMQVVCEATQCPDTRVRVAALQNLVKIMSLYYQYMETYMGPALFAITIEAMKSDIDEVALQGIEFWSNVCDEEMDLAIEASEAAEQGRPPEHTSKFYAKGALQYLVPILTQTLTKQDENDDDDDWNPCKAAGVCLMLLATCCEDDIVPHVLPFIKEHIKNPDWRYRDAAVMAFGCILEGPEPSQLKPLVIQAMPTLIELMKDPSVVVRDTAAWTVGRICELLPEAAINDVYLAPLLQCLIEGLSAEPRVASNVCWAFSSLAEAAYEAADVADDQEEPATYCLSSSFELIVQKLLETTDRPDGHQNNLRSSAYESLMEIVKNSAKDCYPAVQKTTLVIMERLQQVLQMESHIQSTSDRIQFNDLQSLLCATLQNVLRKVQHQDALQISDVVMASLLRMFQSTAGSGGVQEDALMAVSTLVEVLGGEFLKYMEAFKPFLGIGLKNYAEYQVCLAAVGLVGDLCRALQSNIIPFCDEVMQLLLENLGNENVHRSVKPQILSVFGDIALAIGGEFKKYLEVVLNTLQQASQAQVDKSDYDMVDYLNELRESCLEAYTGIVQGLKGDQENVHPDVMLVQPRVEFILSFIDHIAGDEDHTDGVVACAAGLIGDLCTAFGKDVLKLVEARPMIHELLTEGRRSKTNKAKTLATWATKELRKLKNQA
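FRET biosensor (snurportin 1 IBB flanked by EYFP and cerulean), 50 nM, with compound 5 min, then 0.125 microM importin beta in PBS, 1 mM DTT, 0.02% Tween-20, 0.1% BSA. CFP/YFP ratio read after 45 min at room temperature; pre-read flags interference.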
GLA inh pH 4.5: alpha-galactosidase A (human) inhibition, pH 4.5; purified enzyme, 4-MU-alpha-Gal fluorescence, pH 4.5; activity change, negative = inhibition, % at 105 µM; 230,000 tested, under 10 active; AID 1467; inconclusive = small, poorly fitted or top-dose-only inhibition, or a rising curve; inactive = flat fitted curve, though single readings scatter; no compound was filed as active;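 further: 0% = full activity with enzyme and -100% = basal without enzyme; dose as in the result columns while the protocol names 77 µM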
Rango dissoc inh: inhibitors of RanGTP-induced Rango-importin beta complex dissociation. O95149+P62826. Biochemical FRET Rango-importin beta, RanGTP-induced dissociation. Potency, µM (doses to about 46.1 µM), for the others: at the highest dose activity change, negative = inhibition. hit rate 0.071% among 340,000. AID 540253; active means falling FRET ratio curve, often poorly fitted, with flat reads before Ran was added; inconclusive means other falling curves, or compound fluorescence or quenching; inactive means flat or rising ratio curve;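 further: potency means the concentration at half of the fitted maximal effect; % of control where 0% means no effect; nearly all actives have a fitted effect of over 45% in size; -100% = wells without RanGTP and RCC1; the record marks most hits as doubtful in a second field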
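Compounds sat 5 min at room temperature with 0.1 uM Rango biosensor plus 0.25 uM importin beta, then FRET pre-read. RanGTP-RCC1 (0.6 uM Ran, 2mM GTP, 0.2 uM RCC1) added for 45 min, and the CFP/YFP post-read measured blocked complex dissociation.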
* hit, by the source's call; ? = inconclusive; . = not tested or not shown; & = joins results of further samples. A portion of the library; rates above refer to the full screens.

miR-21 reporter,Rango-impB inh,GLA inh pH 4.5,Rango dissoc inh,mol
.,0.2%,.,-14%,COc1cc(CCC(=O)OCC(=O)Nc2cc(S(=O)(=O)N3CCOCC3)ccc2Cl)cc(OC)c1OC
-7%,0.6%,6,17%,O=C(O)c1cccc(Cn2cccn2)c1
1%,?,-21,-2%,Cc1ccc(CSCCNC(=O)c2ccc(N(C)S(=O)(=O)c3ccccc3)cc2)cc1
-12%,3.3%,-5,8%,C/C(=N/OC(=O)C1CC12CCC2)c1ccc(Br)cc1 (centres undefined)
-4%,?,7,1%,CC(NC(=O)c1cn(C(C)c2ccccc2F)nn1)c1ccncc1 (centres undefined)
-1%,1.6%,-25,6%,COc1ccc2cc(C#N)c(Cl)nc2c1
15%,0.5%,7,7%,CCOc1cc(S(=O)(=O)Nc2cc(C)cc(C)c2)ccc1Cl
-3%,3.5%,3,2%,CCOC(=O)COc1ccc2nsnc2c1Cl
-10%,?,0,?,CCc1ccc(CN/C=C/C(=O)c2ccc(Br)cc2)cc1
-24%,?,7,3%,COC(=O)c1cc2c(C)nn(-c3ccccc3)c2s1
9%,5.4%,.,-9%,Cc1ccccc1N1CCN(CC(=O)NCc2ccc(Cl)cc2)CC1
-4%,?,.,-13%,Cc1ccc(-n2nc3c(N4CCC(C(=O)N5CCC(C(N)=O)CC5)CC4)nnc(C)c3c2C)cc1
-9%,0.3%,-12,17%,COc1ccc(S(=O)(=O)Nc2ccc(O)c(Sc3ncn[nH]3)c2)cc1
21%,-0.1%,-10,14%,c1ccc(CNc2ncnc3c2cnn3Cc2ccccc2)cc1
-19%,?,-12,-7%,COC(=O)c1ccc(-c2ccc(/C=N/NC(=O)Cc3nnc(N)s3)o2)cc1
.,-1.9%,.,14%,O=C(NCCc1ccc(F)cc1)c1ccc(NS(=O)(=O)c2ccc3[nH]c(=O)[nH]c3c2)cc1
-28%,-0.6%,2,-4%,Cc1ccc(NC(=S)NNC(=O)c2ccc(N3CCOCC3)c([N+](=O)[O-])c2)cc1C
1%,?,-2,?,CC1=Nc2ccccc2/C1=C\c1nc(-c2ccc(C(F)(F)F)cc2)oc1O
.,-5.6%,.,-13%,CC(C)CN(C(=O)COC(=O)/C=C/c1cccs1)c1c(N)n(Cc2ccccc2)c(=O)[nH]c1=O
-4%,0.5%,.,-6%,Fc1ccc(CNc2ncccn2)cc1
-1%,1.1%,6,5%,Cc1cc(C)nc(SCC(=O)c2c(N)n(C)c(=O)n(C)c2=O)n1
-21%,?,-6,8%,CCOc1ccc(C2c3cc(OC)c(OC)cc3CC(=O)N2c2ccccc2)cc1 (centres undefined)
-6%,-3.9%,-14,-13%,Nc1nc2ccc(O)cc2s1
.,-2.0%,.,-8%,COc1cc(OC)cc(-c2c(C#Cc3ccsc3)c3cc(Br)ccc3n2C)c1
3%&1%,4.5%,.,6%,Cc1cccc(N2CCN(S(=O)(=O)c3ccc4c(c3)CC(=O)N4C)CC2)c1C
-5%,-2.3%,1,0%,COc1ccc(/C(O)=C/C(=O)C(=O)Nc2c(C)n(C)n(-c3ccccc3)c2=O)cc1
.,-2.0%,.,-3%,O=C(c1cc(Br)ccc1Cl)N1CCN(c2ccc(N3CCOCC3)nn2)CC1
0%,-0.1%,-18,0%,CC12CCC(C(=O)N3CCOCC3)([C@H](Br)C1=O)C2(C)C (some centres undefined)
-6%,5.1%,-5,3%,O=C(O)C1C2C=CC(C2)C1C(=O)Nc1cccc(C(=O)N2CCCCC2)c1 (centres undefined)
-5%,1.2%,-13,-5%,CCCCS(=O)(=O)Nc1ccc2cn[nH]c2c1
3%,2.3%,.,3%,CCOc1cc(S(=O)(=O)NCCCn2ccnc2)ccc1Cl
-8%,-1.6%,3,8%,O=CN1CCN(C(=O)c2ccc([N+](=O)[O-])cc2)CC1
-6%,-4.8%,-8,1%,COc1ccccc1CNCc1ccc(OC)c(OC)c1OC
-34%,0.4%,-2,-17%,Cc1ccc(C)c2nc3sc(C(=O)O)cc3cc12
-8%,0.5%,-1,-5%,O=C(NNC(=O)c1cccs1)c1ccc(Cl)c([N+](=O)[O-])c1
-19%,0.8%,.,3%,COc1cccc2cc(C(=O)N3CCCCCCC3)c(=O)oc12
-6%,-1.1%,-2,-19%,CCSc1nc2c(c(=O)[nH]1)C(c1ccc(C)cc1)C1=C(CCCC1=O)N2 (centres undefined)
-2%,8.5%,2,-2%,Oc1ccc(/C=N/N2CCN(C3c4ccccc4-c4ccccc43)CC2)c(O)c1
-55%,?,1,-7%,CN1CCSc2ccc(C(=O)Nc3cc(F)ccc3F)cc21
-2%,?,3,-30%,COc1cccc(CNC(=O)CCC2CCCN(C(=O)c3cccc4c(C)c(C)[nH]c34)C2)c1 (centres undefined)
6%,7.5%,.,-11%,N#C/C(=C\c1cccnc1)c1ccc([N+](=O)[O-])cc1
-4%,-5.6%,1,9%,O=C(CSc1cccc[n+]1[O-])Nc1ccc(C(F)(F)F)cc1[N+](=O)[O-]
.,-2.5%,.,12%,COc1ccc(OCC(=O)N(C)CC2COc3ccccc3O2)cc1 (centres undefined)
.,-1.9%,.,12%,CCCCCCCNC(=O)C1(CC2CC(c3cccc(Br)c3)=NO2)CCN(C(=O)C2CCCC2)CC1 (centres undefined)
-2%,-2.1%,.,?,CCc1cc(C(=O)N2CCCC(Nc3ccc(F)c(F)c3)C2)n(C)n1 (centres undefined)
-7%,-2.2%,.,11%,COC(=O)N/N=C\c1ccc(OC/C=C/c2ccccc2)c(OC)c1
-10%,-0.3%,0,-7%,O=C(/C=C/c1ccc([N+](=O)[O-])cc1)NCCSCc1ccco1
.,0.8%,.,13%,CCc1ccc(C(=O)OCC(=O)N(CCOC)c2c(N)n(Cc3ccccc3)c(=O)[nH]c2=O)cc1
-1%,-2.5%,-12,17%,CN(C)c1ccc(/C=C/C(=O)c2ccc(O)cc2)cc1[N+](=O)[O-]
-60%,7.4%,-8,-4%,CCCCC(=O)Nc1sc2c(c1C(N)=O)CCC2
0%,2.6%,.,?,CCNC(=O)CSc1nc2cc(S(=O)(=O)Nc3ccc(OC)cc3)ccc2o1
-23%,0.8%,.,-1%,CC(CC(=O)N1CCc2ccccc21)n1cccn1 (centres undefined)
.,4.1%,.,-17%,O=S(=O)(NCCCCCCNS(=O)(=O)c1c(F)cccc1F)c1ccc2c(c1)OCCO2
.,-4.4%,1&-9,-3%,COc1ccccc1N1CCN(CCCCN2C(=O)c3ccccc3C2=O)CC1
-6%,1.8%,5,-13%,O=C(NCc1ccco1)c1cccc2ccccc12
0%,2.4%,0,-10%,Cc1nc(SCC(=O)c2ccc(F)c(F)c2)[nH]c(=O)c1Oc1ccc(Cl)cc1
.,-5.3%,.,-2%,O=C(COC(=O)C1CCCCC1)Nc1cccc(Br)c1
-29%,1.3%,-5,11%,O=C(Nc1ccc(OCc2ccccc2)cc1)c1ccccc1
-8%,1.6%,-2,0%,COc1ccc(-c2nc3nc(N)nn3cc2C)cc1F
-2%,?,9,?,COc1cc(/C=C2/C(C)=C(C#N)c3nc(N)c(C#N)c(C)c32)ccc1OCC(=O)O

A draw from above in order of SMILES length, largest number first.
miR-21 reporter,Rango-impB inh,GLA inh pH 4.5,Rango dissoc inh,mol
.,0.8%,.,13%,CCc1ccc(C(=O)OCC(=O)N(CCOC)c2c(N)n(Cc3ccccc3)c(=O)[nH]c2=O)cc1
.,4.1%,.,-17%,O=S(=O)(NCCCCCCNS(=O)(=O)c1c(F)cccc1F)c1ccc2c(c1)OCCO2
0%,2.6%,.,?,CCNC(=O)CSc1nc2cc(S(=O)(=O)Nc3ccc(OC)cc3)ccc2o1

Further structures.
miR-21 reporter,Rango-impB inh,GLA inh pH 4.5,Rango dissoc inh,mol
-5%,0.4%,3,2%,Cc1cc(NC(=S)Nc2ccccc2)ccc1Br
.,2.5%,.,-4%,CC(=O)Nc1ccc2c3c(cccc13)CC2
6%,-2.1%,2,-4%,CCOC(=O)/C(C#N)=C1\C(=O)N(Cc2ccccc2)c2ccccc21
-13%,0.0%,.,16%,COc1ccc(CCc2nnc(N)s2)cc1OC
2%,2.3%,9,-7%,Cc1cccc(NC(=S)NCc2ccc3c(c2)cc(C)n3C)c1C
.,3.7%,.,-2%,O=S(=O)(Nc1cc(S(=O)(=O)N2CCOCC2)ccc1NCC1CCCO1)c1ccccc1 (centres undefined)
-4%,2.9%,3,-2%,Cc1cc(C(=O)NCc2ccc(S(N)(=O)=O)cc2)c(C)o1
1%,4.8%,-14,26%,COc1ccc(S(=O)(=O)N(Cc2cccs2)C2CCCC2)cc1
.,-1.0%,.,-7%,OC(CSc1ccccc1)CN1CCN(c2ccccc2)CC1 (centres undefined)
.,0.0%,.,17%,CCC(=O)OCC(=O)C1(OC(=O)CC)[C@H](C)C[C@H]2[C@H]3[C@H]([C@@H](O)C[C@@]21C)[C@@]1(C)C=CC(=O)C=C1C[C@H]3Cl (some centres undefined)
7%,0.5%,.,11%,COc1ccccc1C(=O)N/C(=C\c1cn(S(=O)(=O)N(C)C)c2ccccc12)C(=O)NCCCN1CCOCC1
.,-1.9%,.,0%,Cc1cnc(C(=O)OCC(=O)Nc2cc(S(=O)(=O)N3CCOCC3)ccc2Cl)cn1
-6%,-0.6%,13,-26%,CCOC(=O)C1CCN(C(=O)c2cccc(C(=O)N3CCC(C(=O)OCC)CC3)c2)CC1
.,1.7%,.,11%,Cn1nc(C(=O)OCC(=O)Nc2cc(Cl)ccc2C#N)c2ccccc2c1=O
-13%,-0.2%,.,38%,COc1cccc(-c2cc(CC3(O)CCN(CCCc4ccccc4)CC3)on2)c1

Compounds from the list above that contain a CF3 group:
miR-21 reporter,Rango-impB inh,GLA inh pH 4.5,Rango dissoc inh,mol
1%,?,-2,?,CC1=Nc2ccccc2/C1=C\c1nc(-c2ccc(C(F)(F)F)cc2)oc1O
-4%,-5.6%,1,9%,O=C(CSc1cccc[n+]1[O-])Nc1ccc(C(F)(F)F)cc1[N+](=O)[O-]

Carrying on:
miR-21 reporter,Rango-impB inh,GLA inh pH 4.5,Rango dissoc inh,mol
0%,0.1%,-22,-1%,CC1=C(C(=O)OC(C)C)C(c2ccc(C)o2)C(C(=O)OC(C)C)=C(C)N1
-1%,-2.1%,.,?,Cc1ccc(CNC(=O)c2c(-c3ccccc3)noc2C)cc1
-1%,-4.6%,-3,3%,CC(C)CCN1C(=O)CCC1(C)C(=O)NC1CCCCCC1 (centres undefined)
5%,0.6%,-3,-4%,Cc1ccc(C2C3C(=O)N(c4ccccc4)C(=O)C3N3CCCN23)cc1 (centres undefined)
0%,0.0%,12,-14%,Cc1cccc2c(=O)c(Br)c(C)n(Cc3ccccc3)c12
0%,-0.8%,9,-2%,CCC1=NN(C(=O)Cc2ccc([N+](=O)[O-])cc2)C(O)(c2ccncc2)C1 (centres undefined)
26%,-2.6%,-1,-1%,CCC(=O)NC(c1cccs1)c1ccc2cccnc2c1O (centres undefined)
4%,-0.4%,.,-7%,Cc1cc(C)cc(N(CC(=O)N2CCCCCC2)S(C)(=O)=O)c1
2%,6.4%,.,12%,O=C(CCN1C(=O)/C(=C/c2ccc(Cl)cc2)SC1=S)NCCCn1ccnc1
-1%,0.4%,-8,-9%,Cc1ccc(CCSCC(=O)O)cn1
9%,-2.0%,.,-24%,O=S(=O)(c1ccccc1)N1N=C(c2ccc(O)cc2)CC1c1ccco1 (centres undefined)
.,2.4%,.,-17%,Cc1ccc(Cc2ccccc2C(=O)O)cc1
10%,4.9%,.,-1%,Cc1cccc(NS(=O)(=O)c2ccc(C(=O)NCC(c3ccco3)N(C)C)cc2)c1C (centres undefined)
-14%,-2.5%,-7,2%,N#Cc1ccc(N2CCc3ccccc3C2)c([N+](=O)[O-])c1
-4%,3.2%,11,16%,S=c1[nH]ncn1/N=C/c1ccccc1
?,-6.2%,-7,-7%,CC1=CC(C)(C)Nc2ccc(OC(=O)c3ccco3)cc21
-3%,?,3,-10%,CS(=O)(=O)Nc1ccc2[nH]c(=O)[nH]c2c1
-1%,-0.8%,5,-16%,O=C(O)c1ccc(-c2nnn(Cc3cccc(C(F)(F)F)c3)n2)cc1
